GIV-Gai inh = blocks GIV peptide binding to rat Galpha-i3 | Galpha-i3/FITC-GIV peptide fluorescence polarization, 90 min; stronger effect = lower value; scaled: aluminum fluoride 0%, vehicle 100% | percent of control (FP), % (test concentration not listed) | 0.42% of 210,000 active | AID 1224905;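 active = replicate mean at 85% of control or lower, very high polarization wells dropped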;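 note: wells of about 15 µL received 100 nL stock; the first replicate is given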
Target sequence (P08753 whole entry, looked up): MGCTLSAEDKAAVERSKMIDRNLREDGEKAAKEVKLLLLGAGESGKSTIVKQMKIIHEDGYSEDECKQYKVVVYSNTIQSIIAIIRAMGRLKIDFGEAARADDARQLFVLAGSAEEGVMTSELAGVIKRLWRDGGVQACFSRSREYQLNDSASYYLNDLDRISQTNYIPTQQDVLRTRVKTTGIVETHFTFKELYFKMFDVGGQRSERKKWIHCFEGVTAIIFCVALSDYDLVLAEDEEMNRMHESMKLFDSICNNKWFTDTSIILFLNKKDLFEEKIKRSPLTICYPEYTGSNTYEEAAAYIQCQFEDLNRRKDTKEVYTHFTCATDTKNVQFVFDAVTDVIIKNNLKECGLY
HCMV NEC inh = disrupts HCMV UL50-UL53 complex binding; inhibition, % (test concentration not listed); 0.15% of 190,000 active; HTRF UL50-UL53 interaction, normalized percent inhibition;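 active = both replicates at 50% or more, plus weaker picks with an unusually low signal ratio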;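 note: stock transfer was 100 nL into about 20 µL; 0% = negative control wells and 100% = wells with untagged competitor protein; inactives centre near -12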
Sa growth inh = inhibitors of Staphylococcus aureus growth at 42 °C; S. aureus RN4220 growth, OD600, 20 h; stronger effect = lower value; relative growth, % (test concentration not listed); 0.53% of 170,000 active; AID 720641;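 active = growth at 42 °C up to 50% and 20 or more points under that at 30 °C, or under 10% at both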;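 note: 300 nL library stock went into each well; scaled to the means of positive and negative controls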
Sa growth inh second temp = second read-out of Sa growth inh, no call of its own (marks repeat the call); relative growth, %; measured here: growth at 30 °C;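 optical density after 20 h as mean of two plates; 100% = untreated growth and lower means inhibition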
* marks the source's active call; other numbers are inactive results; . = not tested or not shown; & = joins results of further samples.

Order of results: GIV-Gai inh, HCMV NEC inh, Sa growth inh, Sa growth inh second temp
1. O=C(N1N=CCC1c1ccccc1)C12CC3CC(CC(C3)C1)C2 (stereo unspecified)
    ., -5.0, 83.6, 88.6
2. Nc1nc(S(=O)(=O)c2ccc(Cl)cc2)c(Cl)s1
    ., 6.6, 96.6, 84.5
3. CC(C)(O)P(C)(=O)c1ccccc1 (stereo unspecified)
    96.1, -7.7, 106.5, 98.0
4. CC1CCN(S(=O)(=O)c2ccc3c(c2)N(CC(=O)NCc2ccccc2)C(=O)CO3)CC1
    101.6, -1.8, 90.1, 97.3
5. O=C(CSc1nnc(-c2cccnc2)n1C1CC1)c1c[nH]c2ccccc12
    ., 5.9, 105.4, 110.6
6. COc1ccc(OCCN(C)C(=O)c2ccc(-n3cccn3)cc2)cc1
    ., -12.8, 86.2, 85.0
7. O=C(NCCCN1CCCC1)C1=Cc2ccccc2OC1
    104.0, -53.5, ., .
8. Cc1c(N=C2C(=O)Nc3ccccc32)c(=O)n(-c2ccccc2)n1C
    104.6, -10.1, 88.6, 74.8
9. Cc1c(C)n(-c2ccccc2)c2ncn(CCC(=O)NCCCc3ccccc3)c(=O)c12
    102.0, -13.5, ., .
10. Cc1onc(-c2c(Cl)cccc2Cl)c1NC(=O)NNc1cc(Cl)ccc1Cl
    100.4, -27.5, 81.7, 70.6
11. O=C(O)Cn1nnc(N2CCCC2)n1
    112.2, 15.6, 105.0, 94.4
12. CCOC(=O)c1c(NC(=O)CSc2nc(C)nc3sc4c(c23)CCC4)sc(C(=O)OC)c1C
    103.4, -9.3, ., .
13. O=C(c1ccccc1)c1cnc2ccccc2c1S(=O)(=O)c1ccccc1
    95.9, -11.4, ., .
14. CN(C)CCCNc1nc(-c2cccs2)nc2sc3c(c12)CCCC3
    ., 1.9, 122.4, 104.0
15. CCc1nn(CC(=O)NC(C)c2ccc3c(c2)OCCO3)c(=O)c2cc3sc(C)cc3n12 (stereo unspecified)
    102.5, -6.6, 112.1, 78.5
16. COc1ccccc1CNC(=O)CN1C(=O)COc2ccc(S(=O)(=O)N3CCC(C)CC3)cc21
    102.6, -41.0, 97.2, 84.1
17. C=CCC(C(=O)OC)N1CCOCC1 (stereo unspecified)
    99.1, 4.6, 104.2, 97.1
18. COc1ccc(-c2nnc(Oc3ccc(C)cc3)c3ccccc23)cc1
    102.9, 8.3, ., .
19. Cc1cc(C)n(-c2nc(N(c3ccccc3)c3ccccc3)nc(-n3nc(C)cc3C)n2)n1
    101.4, -11.7, 112.6, 47.1
20. CCc1nc2ccc(C(=O)NCCc3ccc(OC)cc3OC)cc2nc1CC
    102.0, ., 101.9, 97.0
21. O=C(COc1ccccc1O)Nc1ccccc1
    ., -1.4, 111.2, 81.8
22. Clc1ccc(-c2csc3ncnc(NCc4ccc5c(c4)OCO5)c23)cc1
    97.4, -23.2, ., .
23. CCC(=O)C1=C(c2ccc(F)cc2)N(C(=O)CC)n2cnnc2S1
    105.5, ., 101.3, 96.0
24. O=S(=O)(Cc1cccc(C(F)(F)F)c1)Cc1nc(-c2ccc(C(F)(F)F)cc2)cs1
    105.3, -22.9, 106.3, 88.4
25. Cc1ccc2c(c1)C(=O)OC(C(=O)Nc1ncc(Cc3ccc(C(C)C)cc3)s1)C2 (stereo unspecified)
    107.1, -66.1, 102.7, 93.6
26. COc1ccc(-c2cc(C)no2)cc1S(=O)(=O)N1CCN(c2cccc(C)c2)C(C)C1 (stereo unspecified)
    102.5, ., 104.5, 103.8
27. O=C(CS(=O)(=O)Cc1ccccc1)N1CCCc2ccccc21
    ., -4.7, 121.7, 83.8
28. CC(C)c1ccc(NC(=O)Cn2ncn3c(cc4ccccc43)c2=O)cc1
    108.2, 3.3, ., .
29. CCc1ccccc1NC(=O)CN1CCN(C(=O)CCS(=O)(=O)c2ccc(C)cc2)CC1
    ., -21.0, 94.7, 83.6
30. COc1ccc(NC(=O)CSc2nc3ccccc3nc2N2CCCCC2)cc1
    102.2, -29.7, 101.1, 91.6

Nos. 1 to 3 from above:
Order of results: GIV-Gai inh, HCMV NEC inh, Sa growth inh, Sa growth inh second temp
1. O=C(N1N=CCC1c1ccccc1)C12CC3CC(CC(C3)C1)C2 (stereo unspecified)
    ., -5.0, 83.6, 88.6
2. Nc1nc(S(=O)(=O)c2ccc(Cl)cc2)c(Cl)s1
    ., 6.6, 96.6, 84.5
3. CC(C)(O)P(C)(=O)c1ccccc1 (stereo unspecified)
    96.1, -7.7, 106.5, 98.0

Additional records follow.
nr | smiles | GIV-Gai inh | HCMV NEC inh | Sa growth inh | Sa growth inh second temp
31 | COc1ccccc1CCNC(=O)Cc1c(C)c2cc(Cl)c(O)cc2oc1=O | 99.5 | -50.1 | 109.2 | 84.4
32 | CCN1CCCC1CNC(=O)c1ccc2c(c1)NC(=O)c1ccccc1S2 (stereo unspecified) | 104.1 | 4.6 | 105.2 | 88.1
33 | CCCN1C2=C(C(=O)CCC2)C(c2ccc(O)c(Br)c2)C2=C1CCCC2=O | 102.0 | -55.2 | 84.0 | 75.7
34 | Cc1c(C)c(C)c(CS/C(N)=N/N)c(C)c1C | 102.5 | -14.6 | 108.5 | 94.1
35 | O=C(/C=C/c1cccs1)OCC(=O)N1CCCC1 | . | -109.2 | 89.4 | 83.3
36 | Cc1nc2c(-c3ccccc3)c(C)nn2c(C)c1CC(=O)NCc1ccc(Cl)cc1 | 104.1 | -26.5 | . | .
37 | CCCCSc1nnc2c(n1)OC1(CCCCC1)Nc1ccccc1-2 | 107.6 | -32.7 | . | .
38 | Cc1ccc(CN2C(=O)c3ccccc3Sc3ccc(C(=O)NCCCN4CCOCC4)cc32)cc1 | 107.3 | . | 94.8 | 98.8
39 | CCOc1ccc(CNC(=O)c2ccc(Sc3ccc(Cl)cc3)c(NC(C)=O)c2)cc1 | 109.2 | . | 111.2 | 98.9
40 | CCOc1cccc(C(=O)Nc2ccc3oc(-c4ccc(C(C)(C)C)cc4)nc3c2)c1 | 107.0 | -67.3 | 104.5 | 86.5
41 | O=S(=O)(c1ccccc1)c1nnn2c1nc(NCc1ccccc1)c1cc(Cl)ccc12 | 105.1 | -7.8 | 97.5 | 91.6
42 | C=CCN1C(=O)/C(=C\c2ccc(C(=O)O)cc2)S/C1=N\c1nnc(C)s1 | . | -54.5 | 94.6 | 84.9
43 | CC(=O)Nc1ccc(/C=N/NC(=S)NC(C)C)cc1 | . | -39.5 | 96.1 | 100.6
44 | CCN(CC)C(=O)c1ccc(O)c(OC)c1 | 104.7 | -26.9&-8.6&-4.3 | 94.4 | 94.1
45 | COc1ccccc1NS(=O)(=O)c1cccc(C(=O)Nn2cnnc2)c1 | . | 16.2 | 97.4 | 101.2

Part of the list above, screen by screen:
38	Cc1ccc(CN2C(=O)c3ccccc3Sc3ccc(C(=O)NCCCN4CCOCC4)cc32)cc1
39	CCOc1ccc(CNC(=O)c2ccc(Sc3ccc(Cl)cc3)c(NC(C)=O)c2)cc1
40	CCOc1cccc(C(=O)Nc2ccc3oc(-c4ccc(C(C)(C)C)cc4)nc3c2)c1
41	O=S(=O)(c1ccccc1)c1nnn2c1nc(NCc1ccccc1)c1cc(Cl)ccc12
42	C=CCN1C(=O)/C(=C\c2ccc(C(=O)O)cc2)S/C1=N\c1nnc(C)s1
43	CC(=O)Nc1ccc(/C=N/NC(=S)NC(C)C)cc1
44	CCN(CC)C(=O)c1ccc(O)c(OC)c1

assay / entry,38,39,40,41,42,43,44
GIV-Gai inh,107.3,109.2,107.0,105.1,.,.,104.7
HCMV NEC inh,.,.,-67.3,-7.8,-54.5,-39.5,-26.9&-8.6&-4.3
Sa growth inh,94.8,111.2,104.5,97.5,94.6,96.1,94.4
Sa growth inh second temp,98.8,98.9,86.5,91.6,84.9,100.6,94.1

The results go on:
nr | smiles | GIV-Gai inh | HCMV NEC inh | Sa growth inh | Sa growth inh second temp
46 | COC(=O)c1scc(-c2ccccc2)c1S(=O)(=O)Nc1cccc(C)c1C | 110.2 | . | 132.0 | 90.5
47 | Cc1ccc(NC(=O)CCSc2nnc3scc(-c4ccccc4)n23)cc1 | 103.2 | -21.0 | 92.8 | 78.5
48 | CC(=O)N1CC(C)Sc2cc(S(=O)(=O)N(C)c3ccc(C)cc3)ccc21 (stereo unspecified) | 100.4 | . | 110.4 | 78.3
49 | Cc1c(S(=O)(=O)NCc2ccc3c(c2)OCO3)c(=O)n(C)c(=O)n1C | 108.1 | -7.2 | 82.3 | 84.5
50 | CC(C)N(CC(N)=O)C(=O)c1cc2ccccc2o1 | . | -14.9 | 68.2 | 73.4
51 | COc1ccc(CN(Cc2ccco2)C(=O)COc2ccccc2Cl)cc1 | 99.9 | -27.9 | 95.1 | 56.1
52 | O=C(NCc1ccccc1)C12CC3CC(CC(C3)C1)C2 | . | 11.0 | 103.2 | 98.1

3 of the compounds above, with one line to a screen:
47	Cc1ccc(NC(=O)CCSc2nnc3scc(-c4ccccc4)n23)cc1
48	CC(=O)N1CC(C)Sc2cc(S(=O)(=O)N(C)c3ccc(C)cc3)ccc21 (stereo unspecified)
49	Cc1c(S(=O)(=O)NCc2ccc3c(c2)OCO3)c(=O)n(C)c(=O)n1C

| Compound | 47 | 48 | 49 |
| --- | --- | --- | --- |
| GIV-Gai inh | 103.2 | 100.4 | 108.1 |
| HCMV NEC inh | -21.0 | . | -7.2 |
| Sa growth inh | 92.8 | 110.4 | 82.3 |
| Sa growth inh second temp | 78.5 | 78.3 | 84.5 |

Screening data deposited in PubChem by ICCB-Longwood Screening Facility, Harvard Medical School.
